Compound activity from PubChem BioAssay.
MbtI inh: MbtI salicylate synthase inhibitors, primary screen, biochemical, fluorescence intensity. P9WFX0. purified MbtI enzyme, fluorescence intensity read-out. inhibition, %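 (about 17 µg/mL by stock and volumes)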. 0.89% of 100,000 active;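 active = above 50% in both replicates, above 80% if mildly self-fluorescent; inactive = the rest, strongly fluorescent compounds included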;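 also: 0% = mean of negative and 100% = mean of positive controls; one replicate is shown; some compounds called inactive have numbers as strong as hits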
PV pol inh: poliovirus RdRp elongation inhibitors, primary screen, biochemical, fluorescence polarization, total intensity | Genome polyprotein (Poliovirus type 1 (strain Mahoney)), P03300 | poliovirus polymerase elongation; active compounds read low | % elongation, % (compound at 16.7 µg/mL) | 0.66% of 150,000 active; in the data active = % elongation below about 90%; also: some results filed as inactive read as strong as hits
Target sequence (P03300 1749-2209 limits assumed): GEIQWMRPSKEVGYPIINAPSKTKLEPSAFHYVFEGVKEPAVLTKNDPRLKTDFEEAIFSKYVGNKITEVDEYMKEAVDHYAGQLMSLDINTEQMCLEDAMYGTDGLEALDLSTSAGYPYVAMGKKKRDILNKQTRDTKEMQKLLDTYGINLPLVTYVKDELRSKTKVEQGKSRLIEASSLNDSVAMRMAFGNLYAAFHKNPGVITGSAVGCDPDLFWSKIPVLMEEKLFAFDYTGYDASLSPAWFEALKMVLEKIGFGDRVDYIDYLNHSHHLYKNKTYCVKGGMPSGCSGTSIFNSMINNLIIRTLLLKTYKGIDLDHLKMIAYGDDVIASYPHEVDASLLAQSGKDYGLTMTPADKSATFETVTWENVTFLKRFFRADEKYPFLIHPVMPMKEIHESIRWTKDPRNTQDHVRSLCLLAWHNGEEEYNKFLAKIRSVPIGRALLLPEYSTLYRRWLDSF
MenB inh: M. tuberculosis MenB inhibitors, primary screen, biochemical, absorbance; AID 540299, 2011; inhibition, %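 (about 12 µg/mL by stock and volumes)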; MenB enzyme assay, absorbance read-out; some hits fall short of the stated cut; 0.43% of 100,000 active; 1,4-dihydroxy-2-naphthoyl-CoA synthase (Mycobacterium tuberculosis (strain ATCC 25618 / …;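 active = mean of two replicates above 30%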;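 also: 0% = no compound and 100% = wells with inactive enzyme; the first replicate is given; strong numbers were not always called active; inactives centre near -10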
Target sequence (P9WNP5 whole entry, looked up): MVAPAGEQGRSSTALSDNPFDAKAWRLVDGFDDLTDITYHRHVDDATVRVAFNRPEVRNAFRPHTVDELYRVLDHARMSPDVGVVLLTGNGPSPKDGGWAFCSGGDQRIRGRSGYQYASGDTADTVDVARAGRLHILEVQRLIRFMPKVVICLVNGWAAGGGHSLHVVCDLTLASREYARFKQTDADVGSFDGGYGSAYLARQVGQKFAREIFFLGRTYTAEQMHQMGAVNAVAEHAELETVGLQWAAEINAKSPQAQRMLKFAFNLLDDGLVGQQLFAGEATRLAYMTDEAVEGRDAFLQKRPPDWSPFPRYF
PV pol inh intensity: recorded beside PV pol inh, whose call it bears; % elongation; measured here: total intensity read-out; formula for this scale not given here;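 total fluorescence in place of polarization; lower means less elongation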
The depositor's hits bear a star; · = no result given; & = joins results of further samples. Random draw from the library (roughly 1.8% active in at least one column).

compound | PV pol inh | MbtI inh | PV pol inh intensity | MenB inh
OCc1ccc2ccccc2n1 | 106 | 16 | 116 | 10
COc1ccc(NC(=O)CNc2cccc(Oc3ccccc3)c2)cc1 | 103 | -5 | 97 | ·
COC(=O)C(Cc1ccccc1)NC(=O)c1cccc(S(=O)(=O)N(C)C)c1 (stereo not drawn) | 103 | -10 | 107 | -7
COc1ccc2cc3cc(C(=O)N(C)c4cccc(C)c4)oc3nc2c1 | 102 | 6 | 102 | -15
Cc1nn2cc(-c3ccc(N)cc3)nc2s1 | 113 | · | 107 | -10
COc1ccccc1N1CCN(C(=O)c2ccc3[nH]c4c(c3c2)CCCC4)CC1 | 105 | 4 | 104 | -10
CCc1ccc(-n2cnc3ccccc3c2=O)cc1 | 104 | -6 | 101 | 12
Cc1ccc(N)cc1N(C)C | 100 | -4 | 107 | -13

Next part:
compound | PV pol inh | MbtI inh | PV pol inh intensity | MenB inh
CN(C)CCn1c(=O)c2[nH]cnc2n(C)c1=O | 104 | 0 | 104 | -2
CCOC(=O)C1CCCN(C(=O)c2sc3nc(-c4ccc(OC)cc4)cn3c2C)C1 (stereo not drawn) | 102 | -5 | 103 | -27
CC(C)OC(=O)Cn1cnc2ccc(Br)cc2c1=O | 103 | 22 | 102 | 1
CSc1ccccc1NC(=O)CN(C)CN1C(=O)C2CC=CCC2C1=O (stereo not drawn) | 103 | 6 | 95 | -23
CSCCC(C(=O)N1CCN(S(=O)(=O)c2ccccc2C#N)CC1)N1C(=O)c2ccccc2C1=O (stereo not drawn) | 104 | 4 | 99 | 6
CN(CC(=O)NCCc1ccc(F)cc1)Cc1ccccc1 | 101 | 3 | 103 | 2
Cc1c(N=C2C(=O)N(C(C)C)c3ccccc32)c(=O)n(-c2ccccc2)n1C | 103 | 1 | 106 | -48
CCN(C)CC12CC3CC(CC(C3)C1)C2 | 101 | 0 | 104 | -8

Continued:
compound | PV pol inh | MbtI inh | PV pol inh intensity | MenB inh
O=c1cc(CSc2nc3ccccc3o2)occ1O | 106 | 6 | 99 | -36
CCCCc1nc2ccccc2n1CC(=O)Nc1sc2c(c1C(N)=O)CCCC2 | 101 | 62 | 104 | -8
CC(=O)Oc1ccc(-c2ccc(C(=O)O)cc2)cc1Cl | 100 | 85* | 103 | ·
c1cncc(-c2noc(-c3cc(-c4ccco4)n[nH]3)n2)c1 | 98 | -18 | 105 | -4
COc1ccc(C(CNS(=O)(=O)c2cccc(C(=O)O)c2)N2CCCC2)cc1 (stereo not drawn) | 100 | 11 | 98 | -11
CN1C(=O)/C(=C\c2cccc(C(F)(F)F)c2)c2ccccc21 | 102 | 2 | 106 | -12
CC(C)(ONC(=O)Nc1ccccc1Cl)C(=O)O | 103 | 12 | 96 | 12
CC1O[C@@H](OC2/C=C/C=C/C=C/C=C/C[C@@H](C)OC(=O)/C=C/[C@H]3O[C@@H]3C[C@H](O)C[C@]3(O)C[C@H](O)[C@@H](C(=O)O)[C@H](C2)O3)C(O)C(N)[C@@H]1O (stereo partly drawn) | 99 | -2 | 103 | -4

Continued:
compound | PV pol inh | MbtI inh | PV pol inh intensity | MenB inh
CCn1c(=O)n(Cc2ccc3c(c2)OCO3)c(=O)c2oc3ccccc3c21 | 103 | -18 | 102 | -10
CCCC(=O)Nc1cc(C)c(NC(=O)CCC)cn1 | 101 | -6 | 104 | -7
S=c1nn[nH]n1C1CC2CC1C1C=CCC21 (stereo not drawn) | 97 | 46 | 98 | -5
Cc1ccc(/C=[N+](\[O-])c2ccc(N(C)C)cc2)c2nsnc12 | 100 | -2 | 102 | -24
CC(NC1=NCCS1)c1ccccc1 (stereo not drawn) | 99 | -9 | 100 | ·
Cc1cc(=O)oc2cc(OCC(=O)N3CCOCC3)ccc12 | 104 | 79 | 106 | -51
CC1Sc2ccc(C(=O)O)cc2NC1=O (stereo not drawn) | 101 | -8 | 102 | 4
Cc1c(C(=O)NC(=S)Nc2ccc(Br)cn2)oc2ccccc12 | 102 | 3 | 100 | -10

(continued)
compound | PV pol inh | MbtI inh | PV pol inh intensity | MenB inh
CCCn1c(=S)[nH]c2sc3c(c2c1=O)CCCC3 | 100 | -19 | 106 | -57
Cc1cc(N)c2ccccc2n1 | 102 | 116 | 103 | -11
Cc1ccc(C(=O)N/N=C2\CC3CC=CC23)c(C)c1 (stereo not drawn) | 99 | -10 | 102 | -20
CC(Sc1n[nH]c(N)n1)C(=O)Nc1ccccc1 (stereo not drawn) | 104 | 3 | 101 | 6
O=S(=O)(Cc1ccccc1)Nc1cccnc1 | 100 | 5 | 100 | -6
CCOC(=O)C1=C(CN(C)c2ccccc2)NC(=O)NC1c1ccc(OC(C)C)cc1 (stereo not drawn) | 100 | 8 | 102 | -17
O=C1CN(c2ccccc2)C(=O)C1C(=O)Nc1ccccc1 (stereo not drawn) | 100 | 71 | 101 | 7
COc1cccc(CNC(=O)C2CSC3(CCN(C)CC3)N2C(C)=O)c1 (stereo not drawn) | 104 | -11 | 102 | -16

Other entries follow.
compound | PV pol inh | MbtI inh | PV pol inh intensity | MenB inh
CC(NC(=O)C1CCCN(S(=O)(=O)N2CCCCC2)C1)C12CC3CC(CC(C3)C1)C2 (stereo not drawn) | 104 | -11 | 108 | -8
COc1cccc(-c2ccc(=O)n(CC(=O)NCc3ccccc3)n2)c1 | · | 9 | · | -24
COC(=O)c1sccc1NC(=O)CC1C(=O)NCCN1C(=O)NS(=O)(=O)c1ccc(C)cc1 (stereo not drawn) | 103 | -6 | 95 | -21
Cc1ccc(C23CCC(=O)N2C(C(=O)N2CCN(c4ccc(F)cc4)CC2)CS3)cc1 (stereo not drawn) | 105 | -16 | 109 | -12
O=C(NC1CCN(C(=O)NCc2ccccc2)CC1)c1ccco1 | 102 | -5 | 105 | -15
COc1ccccc1CNCC(=O)NCc1ccc(C)cc1 | 102 | -6 | 100 | 3
COC(=O)c1c(C)sc2cc(C(C)(C)C)sc12 | 107 | 1 | 109 | -13
O=C(O)CN1C(=O)/C(=N\N2C(=O)CSC2=S)c2ccccc21 | 106 | -23 | 101 | -319

(next part)
compound | PV pol inh | MbtI inh | PV pol inh intensity | MenB inh
c1cc(CNC2CCCCC2)co1 | 102 | -21 | 102 | 19
CCNS(=O)(=O)c1cc(OC)c(Cl)cc1OC | 102 | 5 | 102 | -16
Cc1ccc(C(=O)COc2ccccc2O)cc1 | 102 | -9 | 104 | ·
COc1ccccc1Nc1nc(-c2ccccc2)c2cc(Cl)ccc2n1 | 99 | · | 109 | -8
Cc1ccccc1OCCn1c(CCCNC(=O)C2CCCCC2)nc2ccccc21 | 105 | -6 | 106 | -18
COc1cc(C(=O)OC(C)C#N)cc(Br)c1O (stereo not drawn) | 98 | -9 | 101 | -37
Cc1ccc2c(c1)NC(C1CC1)=NC(c1ccc(F)cc1)=N2 | 100 | 5 | 98 | 21
CC(=O)Nc1ccc(C(=O)CSc2nnc(-c3cccc(Br)c3)o2)cc1 | 102 | -5 | 102 | -1

Continuation.
compound | PV pol inh | MbtI inh | PV pol inh intensity | MenB inh
COc1ccc(C(CN(C)C)C2(O)CCCCC2)cc1 (stereo not drawn) | 102 | -4 | 101 | -1
Cc1ccc(OCC(O)CN)cc1 (stereo not drawn) | 99 | -6 | 103 | -20
CC(C)[C@]1(O)[C@@H](OC(=O)c2ccc[nH]2)[C@@]2(O)[C@@]3(C)C[C@]4(O)O[C@@]5([C@H](O)[C@@H](C)CC[C@]35O)[C@@]2(O)C41C | 102&101 | -18 | 103&102 | -4
CC(CCc1ccccc1)NC(=O)c1ccc(CS(=O)(=O)c2ccc(Br)cc2)o1 (stereo not drawn) | 101 | 15 | 98 | -26
OCCOc1ccccc1OCCBr | 106 | -9 | 109 | ·
COC(=O)CCSc1ncnc2sc3c(c12)CCC3 | 105 | 12 | 105 | 11
O=c1c(Cl)c(Cl)cnn1-c1ccc(C(F)(F)F)cn1 | 88* | 20 | 76* | -31
O=C(O)CCc1ccc(-c2ccccc2)n1-c1ccccc1O | 101 | -31 | 101 | -34

Next section (3 carried over from the part before).
compound | PV pol inh | MbtI inh | PV pol inh intensity | MenB inh
COC(=O)CCSc1ncnc2sc3c(c12)CCC3 | 105 | 12 | 105 | 11
O=c1c(Cl)c(Cl)cnn1-c1ccc(C(F)(F)F)cn1 | 88* | 20 | 76* | -31
O=C(O)CCc1ccc(-c2ccccc2)n1-c1ccccc1O | 101 | -31 | 101 | -34
COc1ccc(OC)c(Nc2nc3nonc3n3nnnc23)c1 | 97 | 10 | 101 | -21
COc1ccc2c(c1)N(C)/C(=C1/OC(=S)N(C)C1=O)S2 | 107 | · | 129 | -9
N#Cc1c(N)nc(C(F)(F)F)nc1-c1ccccc1 | 105 | -7 | 95 | ·
CCCC(C)C(=O)Nc1cc(C)ccn1 (stereo not drawn) | 100 | 33 | 104 | -4
O=C(/C=C/c1ccccc1)Oc1ccc(-c2nnco2)cc1 | 101 | 2 | 93 | 11
COc1ccc(C2c3c(n(C)c(=O)n(C)c3=O)N=C3c4ccccc4C(=O)C32)cc1 (stereo not drawn) | 102 | 2 | 104 | -16
O=C1S/C(=C\c2ccccc2)C(=O)N1CCn1cnnn1 | 108 | 10 | 114 | -13
COc1ccc(Cl)cc1C(=O)NN1C(=S)NC(C)(C)C=C1C | 103 | · | 105 | -13

(cont.)
compound | PV pol inh | MbtI inh | PV pol inh intensity | MenB inh
NC(=O)C1CC2C=CC1C2 (stereo not drawn) | 101 | -10 | 94 | ·
CC1=CCC23CC1C(=O)C=C2CC(C)(C)CC3=O (stereo not drawn) | 101 | -3 | 100 | 6
Cc1ccc(C)c(-c2nnc(NC(=O)c3cccc(S(C)(=O)=O)c3)o2)c1 | 107 | -3 | 96 | -33
COc1ccc(NC(=O)CC2CS(=O)(=O)CC2CC(=O)Nc2ccc(OC)cc2)cc1 (stereo not drawn) | 106 | · | 106 | 6
CSc1ccccc1C(=O)O | 104 | -4 | 106 | ·
Fc1cccc(N=Cc2ccc3c(c2)OCO3)c1 | 107 | 176 | 103 | -20
CCOC(=O)CSc1ncnc2sc(C)c(C)c12 | 102 | · | 109 | -6
C=CCOc1cccc(C(=O)Nc2ccccc2)c1 | 102 | 6 | 101 | 5

Next results.
compound | PV pol inh | MbtI inh | PV pol inh intensity | MenB inh
Cc1ccc(NC(=O)C(OC(=O)c2ccccn2)c2ccccc2)cc1Cl (stereo not drawn) | 102 | -2 | 107 | ·
Cc1ccc(NC(=O)CCc2c(C)[nH]c(=O)c(C#N)c2C)cc1 | 106 | -7 | 108 | -34
COC(=O)C(O)(c1ccc(N(C)C)cc1)C(F)(F)F (stereo not drawn) | 99 | -10 | 91 | -26
CC(C)(Oc1ccc(Cl)cc1)C(=O)OCC(=O)Nc1ccc(Cl)cc1 | 101 | -2 | 106 | ·
CC1=C(C)CC2C(=O)N(Cc3ccccc3)C(=O)C2C1 (stereo not drawn) | 106 | -13 | 97 | -63
COc1ccc(OC)c2[nH]c(=O)c(CCNC(=O)/C=C\c3ccc4c(c3)OCO4)cc12 | 102 | 33 | 107 | -20
Cc1cc(C(=O)COc2ccc3ccc(=O)oc3c2)c(C)n1-c1nccs1 | 100 | -1 | 107 | -3
O=C(CN1C(=O)CSc2ccc(C(F)(F)F)cc21)Nc1cccc(C(F)(F)F)c1 | 110 | -3 | 106 | -18

The results go on:
compound | PV pol inh | MbtI inh | PV pol inh intensity | MenB inh
CCc1ccccc1NC(=O)CCOc1ccccc1 | 97&103 | 1 | 97&102 | -3
CCCCn1c(SC=O)nc2ccccc2c1=O | 103 | 12 | 107 | -12
O=C(O)c1ccc(CO)cc1 | 101 | -4 | 106 | ·
COc1cccc(-c2cc(C(=O)N3CCN(c4ccccc4)CC3)on2)c1 | 105 | -9 | 102 | -22
O=C(CCCOc1ccc(Cl)cc1Cl)Nc1c[nH]c(=O)[nH]c1=O | 104 | -1 | 102 | -21
CCc1cc2c(C)cc(=O)oc2cc1OCC(=O)NCC1CCCCC1 | 104 | -26 | 108 | ·

Filtered by structure, those above with four or more nitrogen atoms (13)
compound | PV pol inh | MbtI inh | PV pol inh intensity | MenB inh
Cc1nn2cc(-c3ccc(N)cc3)nc2s1 | 113 | · | 107 | -10
CN(C)CCn1c(=O)c2[nH]cnc2n(C)c1=O | 104 | 0 | 104 | -2
CSCCC(C(=O)N1CCN(S(=O)(=O)c2ccccc2C#N)CC1)N1C(=O)c2ccccc2C1=O (stereo not drawn) | 104 | 4 | 99 | 6
Cc1c(N=C2C(=O)N(C(C)C)c3ccccc32)c(=O)n(-c2ccccc2)n1C | 103 | 1 | 106 | -48
CCCCc1nc2ccccc2n1CC(=O)Nc1sc2c(c1C(N)=O)CCCC2 | 101 | 62 | 104 | -8
c1cncc(-c2noc(-c3cc(-c4ccco4)n[nH]3)n2)c1 | 98 | -18 | 105 | -4
S=c1nn[nH]n1C1CC2CC1C1C=CCC21 (stereo not drawn) | 97 | 46 | 98 | -5
Cc1ccc(/C=[N+](\[O-])c2ccc(N(C)C)cc2)c2nsnc12 | 100 | -2 | 102 | -24
CC(Sc1n[nH]c(N)n1)C(=O)Nc1ccccc1 (stereo not drawn) | 104 | 3 | 101 | 6
COC(=O)c1sccc1NC(=O)CC1C(=O)NCCN1C(=O)NS(=O)(=O)c1ccc(C)cc1 (stereo not drawn) | 103 | -6 | 95 | -21
COc1ccc(OC)c(Nc2nc3nonc3n3nnnc23)c1 | 97 | 10 | 101 | -21
N#Cc1c(N)nc(C(F)(F)F)nc1-c1ccccc1 | 105 | -7 | 95 | ·
O=C1S/C(=C\c2ccccc2)C(=O)N1CCn1cnnn1 | 108 | 10 | 114 | -13
